miR-21 FLuc: qHTS Assay for Modulators of miRNAs and/orActivators of miR-21; AID 2288, 2010; 340,000 tested, under 10 active; HeLa miR-21 FLuc reporter, luciferase, 48 h; Potency, µM (series often up to 38.3 µM), for inactives: at the top dose reporter change, positive = more light; active = well fitted rising curve with a large enough effect; inconclusive = small, poorly fitted or top-dose-only effect; inactive = no such curve, though single readings can be large or run the other way;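 note: % of control where 0% means no effect; miR-21 action dims this reporter so a rising signal means less miR-21 action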
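Compounds were titrated across several concentrations (up to approximately 40 uM) and incubated 48 hours with HeLa miR-21-FLuc reporter cells (miR-21 target sequence downstream of FLuc, endogenous miR-21). Readout was firefly luciferase luminescence after lytic detection reagent.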
Rango complex inh: qHTS Assay for Inhibitors of Rango (Ran-regulated importin-beta cargo) - Importin beta complex formation | Potency, µM (top dose mostly 92.2 µM), for inactives: at the top dose inhibition of complex formation | AID 540263, 2011 | 340,000 compounds, 0.031% hits | Rango CFP/YFP FRET sensor + importin beta, 45 min; active = rising FRET ratio curve, often small or poorly fitted; inconclusive = mostly compound fluorescence or quenching in the first reads; inactive = flat curves in all reads;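 note: potency is the fitted concentration of half-maximal effect; 0% = DMSO wells and 100% = buffer wells lacking importin beta; nearly all actives have a fitted effect of over 15% in size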
Target sequence (Q14974 whole entry, looked up): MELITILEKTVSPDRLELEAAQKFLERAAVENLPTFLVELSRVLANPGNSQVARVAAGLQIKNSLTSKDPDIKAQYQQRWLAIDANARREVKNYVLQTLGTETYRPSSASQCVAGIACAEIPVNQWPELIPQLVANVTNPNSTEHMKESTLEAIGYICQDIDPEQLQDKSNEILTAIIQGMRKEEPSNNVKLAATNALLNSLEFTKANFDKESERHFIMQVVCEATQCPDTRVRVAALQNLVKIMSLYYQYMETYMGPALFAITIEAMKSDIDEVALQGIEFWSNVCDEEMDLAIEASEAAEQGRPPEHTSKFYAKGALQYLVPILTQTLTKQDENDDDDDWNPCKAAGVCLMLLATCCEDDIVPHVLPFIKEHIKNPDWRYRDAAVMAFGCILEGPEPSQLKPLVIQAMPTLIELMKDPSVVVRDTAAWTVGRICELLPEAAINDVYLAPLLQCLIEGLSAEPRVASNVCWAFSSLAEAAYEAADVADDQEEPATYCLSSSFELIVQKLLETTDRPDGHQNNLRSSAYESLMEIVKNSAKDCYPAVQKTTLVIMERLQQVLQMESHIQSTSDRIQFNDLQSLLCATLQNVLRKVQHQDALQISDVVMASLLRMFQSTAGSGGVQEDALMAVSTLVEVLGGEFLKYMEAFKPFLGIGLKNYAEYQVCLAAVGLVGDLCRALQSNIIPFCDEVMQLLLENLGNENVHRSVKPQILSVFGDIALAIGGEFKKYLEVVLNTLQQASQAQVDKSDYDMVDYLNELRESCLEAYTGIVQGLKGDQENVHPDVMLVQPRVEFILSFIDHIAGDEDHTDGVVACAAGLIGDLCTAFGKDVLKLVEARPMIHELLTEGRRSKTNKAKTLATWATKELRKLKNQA
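FRET biosensor Rango (snurportin 1 IBB between N-terminal EYFP and C-terminal Cerulean), 50 nM in PBS/1 mM DTT/0.02% Tween-20/0.1% BSA, preincubated 5 min RT with compound; 0.125 microM importin beta added, 45 min RT, CFP/YFP FRET ratio read.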
Rango dissoc inh: qHTS Assay for Inhibitors of RanGTP induced Rango (Ran-regulated importin-beta cargo) - Importin beta complex dissociation; Snurportin-1 (Homo sapiens) + GTP-binding nuclear protein Ran (Homo sapiens) + Importin …; Biochemical FRET Rango-importin beta, RanGTP-induced dissociation; Potency, µM (titrated, usually from 46.1 µM), inactives show at the highest dose activity change, negative = inhibition; 340,000 compounds, 0.071% hits; AID 540253, 2011; active means falling FRET ratio curve, often poorly fitted, with flat reads before Ran was added; inconclusive means other falling curves, or compound fluorescence or quenching; inactive means flat or rising ratio curve;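 note: potency is the fitted concentration of half-maximal effect; % of control where 0% means no effect; nearly all actives have a fitted effect of over 45% in size; -100% = wells without RanGTP and RCC1; the record marks most hits as doubtful in a second field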
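Rango/importin beta premix (0.1/0.25 uM final), PBS + 1 mM DTT + 0.02% Tween-20 + 0.1% BSA; cpd 5 min RT; FRET pre-read; + RanGTP-RCC1 (0.6 uM Ran, 2 mM GTP, 0.2 uM RCC1); 45 min RT; FRET post-read, ex 430, em 486/530 nm.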
GLA inh pH 4.5: qHTS Assay for Inhibitors of Human alpha-Galactosidase at pH 4.5 | purified enzyme, 4-MU-alpha-Gal fluorescence, pH 4.5 | activity change, negative = inhibition, % at 105 µM | 230,000 tested, under 10 active; inconclusive = small, poorly fitted or top-dose-only inhibition, or a rising curve; inactive = flat fitted curve, though single readings scatter; no compound was filed as active;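 note: 0% = full activity with enzyme and -100% = basal without enzyme; dose as in the result columns while the protocol names 77 µM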
* hit, by the source's call; ? = inconclusive; nt = not tested or not shown; [ ] = dose if it differs, or a comment. A portion of the library, so the mix of outcomes need not match the whole.

SMILES	miR-21 FLuc	Rango complex inh	Rango dissoc inh	GLA inh pH 4.5
CCCOC1CCCN(Cc2nc(-c3ccc(C(=O)OC)cc3)no2)C1 (centres undefined)	0%	-0.1%	0%	1
O=C(O)/C=C/c1ccc(-n2ccnc2)cc1	1%	-2.9%	-1%	5
CCc1cc(C(=O)N2CCN(S(=O)(=O)c3ccc(Cl)cc3)CC2)sc1C	nt	-1.0%	-23%	nt
CC(C)CN(C(=O)c1ccc(S(=O)(=O)N2CCOCC2)cc1)C1CCS(=O)(=O)C1 (centres undefined)	nt	-0.6%	18%	nt
COc1cccc(N(CC(=O)N2CCN(c3ccccc3OC)CC2)S(C)(=O)=O)c1	1%	-3.7%	2%	3
O=C(COc1cccc2c1CCNC2=O)Nc1ccc(Cl)cc1	nt	-2.4%	-12%	nt
CCCc1[nH]c(=O)c(C#N)c2c1COC(C)(C)C2	-7%	-0.7%	-17%	0
CC(C)OCCCNC(=O)c1ccc(NS(C)(=O)=O)cc1	-7%	-1.1%	1%	2
COc1cc(SC)ccc1C(=O)Nc1ccc(S(=O)(=O)N2CCCC2)cc1	0%	0.5%	13%	0
COc1ccc(C(=O)Nc2ccc3nc(N4CCN(C)CC4)cc(C)c3c2)c(OC)c1	-38%	-1.3%	-11%	nt
Cc1nc2ccccc2c(=O)n1NC(=O)c1c(F)cccc1F	-2%	2.5%	-4%	nt
Cc1cccc(N2CCN(Cc3nc(-c4ccccc4Cl)oc3C)CC2)n1	-6%	0.3%	-5%	-3
COc1ccc(S(=O)(=O)NC2CC2)cc1-n1cnnn1	0%	-1.1%	-1%	0
CNC(=O)c1cc(Cl)c(OC)c(OC)c1	-1%	-1.6%	-3%	9
CCCn1c(=O)c2c(ncn2C)n(CCC)c1=O	nt	0.8%	21%	-2
C=CCn1c(SCC(=O)Nc2cccc(S(=O)(=O)N(C)c3ccccc3)c2)nnc1C1CC1	nt	-3.1%	-2%	nt
COc1ccc(N2C(=O)C(Cl)=C(N(CCO)Cc3ccccc3)C2=O)cc1	4%	3.0%	4%	0
O=C(CC1OC(=O)c2ccccc21)Nc1ccc(Cl)c(S(=O)(=O)N2CCCCC2)c1 (centres undefined)	nt	3.2%	1%	nt
COc1ccc(C(=O)N/N=C/c2c(C)nn(-c3ccccc3)c2OC)cc1	nt	-1.4%	5%	nt
Cc1cc2nc(Sc3c([N+](=O)[O-])nc(C)n3Cc3ccccc3)[nH]c2cc1C	20%	-1.4%	-16%	3

Compound profiles, as listed above:
Cc1cc2nc(Sc3c([N+](=O)[O-])nc(C)n3Cc3ccccc3)[nH]c2cc1C reads miR-21 FLuc = 20%; Rango complex inh = -1.4%; Rango dissoc inh = -16%; GLA inh pH 4.5 = 3
COc1ccc(C(=O)N/N=C/c2c(C)nn(-c3ccccc3)c2OC)cc1 reads miR-21 FLuc = nt; Rango complex inh = -1.4%; Rango dissoc inh = 5%; GLA inh pH 4.5 = nt

More entries:
SMILES	miR-21 FLuc	Rango complex inh	Rango dissoc inh	GLA inh pH 4.5
Cc1ccc(NC(=O)CSc2nnc(-c3ccoc3C)n2CCCN(C)C)cc1Cl	-10%	0.1%	-14%	nt
Cc1ccccc1-c1oc(C)c(C)[n+]1[O-]	-1%	3.0%	-2%	1[21.1 µM]
CCCCNC(=O)COC(=O)c1ccc(F)cc1Cl	-3%	-3.0%	-4%	-3
Cc1cccc(OC(C)C(=O)OCC(=O)N2CCN(c3ccccc3)CC2)c1 (centres undefined)	nt	-1.1%	14%	nt
Oc1ccc2ccccc2c1/C=N/Nc1nnc(-c2ncc[nH]2)c2ccccc12	-3%	?	?	-7
CC(C)(C)c1ccc(S(=O)(=O)N2CCN(CC(=O)N3CC(=O)Nc4ccccc43)CC2)cc1	nt	-1.7%	-17%	nt
CCOc1ccc(C(C)(C)C)cc1S(=O)(=O)N1CC(C)OC(C)C1 (centres undefined)	-4%	-7.8%	1%	-8
O=C(COc1ccc(S(=O)(=O)NC2CCCCC2)cc1)NCC1CCCO1 (centres undefined)	-3%	0.7%	0%	7
Cc1ccc(C)c(S(=O)(=O)Nc2ccc3sc(C)nc3c2)c1	15%	7.9%	2%	-3
COc1ccccc1CNC(=O)c1cccnc1	0%	1.4%	2%	nt
COc1ccc(NC(=O)CN2CCN(c3ccccc3C)CC2)cc1	-2%	-0.6%	-11%	nt
Cc1ccc(C)c(S(=O)(=O)N2CC(=O)Nc3ccccc32)c1	-2%	-1.9%	6%	0
Cc1nn(Cc2ccc(Cl)cc2)c(C)c1NC(=O)CCCn1nc(C)c([N+](=O)[O-])c1C	4%	3.0%	19%	-2
CCCn1c2ccccc2c2nnc(SC(CC)C(=O)Nc3cc(C)on3)nc21 (centres undefined)	-8%	0.9%	-7%	-9
O=C(CN1CCN(c2ccccc2)CC1)Nc1c(C(=O)C2CC2)oc2ccccc12	-3%	-0.5%	-7%	-9
Cc1cc(C)c(S(=O)(=O)N2CCOC2CNC(=O)C(=O)NCCCn2ccnc2)c(C)c1 (centres undefined)	4%	-1.0%	-11%	8
COc1ccc(CCNC(=O)COC(=O)c2ccc(OC)cc2OC)cc1	nt	3.4%	-12%	nt
Cc1ccc(S(=O)(=O)N2[C@@H](c3ccccc3)C(C(=O)O)=CC[C@H]2c2ccc(Cl)cc2)cc1	nt	3.0%	26%	nt
CCOc1nc(-c2ccc(OC)cc2)ccc1-c1noc(C)n1	-7%	?	-29%	-8
Cc1c(Nc2ncnc3c2cnn3-c2ccccc2)c(=O)n(-c2ccccc2)n1C	-11%	0.3%	1%	3

Random excerpt: two entries already listed, in no set order.
SMILES	miR-21 FLuc	Rango complex inh	Rango dissoc inh	GLA inh pH 4.5
Cc1ccccc1-c1oc(C)c(C)[n+]1[O-]	-1%	3.0%	-2%	1[21.1 µM]
Cc1ccc(C)c(S(=O)(=O)Nc2ccc3sc(C)nc3c2)c1	15%	7.9%	2%	-3

Additional entries:
SMILES	miR-21 FLuc	Rango complex inh	Rango dissoc inh	GLA inh pH 4.5
CC(C)CN1CCCC(N2CCN(c3cccc(Cl)c3)CC2)C1 (centres undefined)	0%	0.8%	17%	nt
CC(C)C(=O)N(Nc1nc2ccccc2s1)C(=O)C(C)C	-9%	8.8%	13%	6
COc1cc(Cl)c(C)cc1NC(=O)CN1CCN(C(=O)C2CC2)CC1	nt	-2.7%	3%	nt
Cc1onc(-c2ccc(Cl)cc2)c1-c1ccnc(SCC(=O)Nc2ccc(C(C)C)cc2)n1	24%	0.2%	0%	-4
COC(=O)c1ccc(C2=NOC(C)(c3sc(-c4ccccc4)nc3C)C2)cc1 (centres undefined)	-13%	-1.0%	-13%	3
CC(=O)NC(Cc1cc(C)ccc1C)C(=O)N1CCN(C(=O)c2ccccc2Br)CC1 (centres undefined)	-2%	-0.3%	-1%	-3
CC(=NO)C1CCC2C3CCC4CC(=NO)CCC4(C)C3C(C)(O)CC12C (centres undefined)	nt	-0.7%	-13%	nt
O=C(O)C1C2C=CC(O2)C1C(=O)Nc1ccc2c(c1)OCCO2 (centres undefined)	2%	nt	nt	2
Cc1ccc(S(=O)(=O)CCC(=O)Nc2nc3c(s2)CCCC3)cc1	2%	-0.4%	-8%	2
CCCOc1ccc(Cl)cc1/C=C1/C(=O)ON=C1C	-1%	13%	-19%	nt
c1ccc(CCCCN2C(Nc3ccccc3)=NC[C@@H]2Cc2ccccc2)cc1	nt	-0.1%	10%	nt
COc1ccc(NC(=O)c2cc(S(=O)(=O)N3CCCC3)cn2C)cc1Cl	0%	0.0%	16%	nt
CCN(CC)CC(C)(C)COC(=O)c1oc2ccccc2c1C	0%	-1.6%	-1%	-13
Cc1ccc(CNC(=O)c2nnn(CC(=O)Nc3cccc(C)c3C)c2N)cc1	-1%	?	-11%	nt
COc1cccc(C(=O)N(Cc2ccccc2)Cc2cc3cc4c(cc3[nH]c2=O)OCCO4)c1	-4%	2.6%	11%	10
O=C(Nc1nnc(-c2cccnc2)o1)c1cccc(Cl)c1	23%	1.0%	-7%	-6
Cc1nc2sc3c(c2c(=O)o1)CC(C)(C)OC3	-7%	-0.9%	8%	-5
CCOC(=O)N1CCN(C(=O)c2cccn3c(=O)c4sccc4nc23)CC1	-8%	-1.2%	-15%	10
O=C(NC(=S)Nn1cnnc1)c1ccccc1	nt	0.3%	5%	nt
CC1Cc2ccccc2N1C(=O)CSc1nc2ccccc2o1 (centres undefined)	-41%	0.9%	7%	-5
O=C(c1ccc(=O)[nH]c1)N(Cc1cccs1)C1(C(=O)NC2CCCC2)CCCCC1	2%	3.6%	0%	-21
COc1ccc(CNC(=O)COC(=O)c2c(C)nn(-c3ccccc3)c2C)cc1OC	nt	1.2%	0%	nt
C=CCNC(=S)NNC(=O)c1ccc(C)c(Cl)c1	-10%	-2.0%	-2%	2
O=C(CN1CCN(CC(=O)Nc2cccc(F)c2)CC1)NCC1(N2CCOCC2)CCCCC1	nt	-3.6%	-3%	nt
C[C@]12c3[nH]c4ccccc4c3CCN1C(=O)C(CC(=O)NCC13CC4CC(CC(C4)C1)C3)C[C@@H]2C(=O)N1CCOCC1 (some centres undefined)	nt	1.4%	5%	nt
Cc1cc(C)c2nc(-c3ccccn3)cc(C(=O)n3cccn3)c2c1	2%	1.1%	0%	0
CC(C)S(=O)(=O)c1ccc(C(=O)Nc2ccc(F)cc2F)cn1	-3%	-3.3%	-12%	6
CC1(C)Oc2cc(N)c([N+](=O)[O-])cc2O1	-6%	-2.1%	3%	-1
CC(C)C[C@@H](CN)NC(=O)c1nc[nH]c1C(=O)N[C@@H](Cc1c[nH]c2ccccc12)C(=O)CNC[C@H](C)NC(=O)c1nc[nH]c1C(=O)N[C@@H](C)C(=O)O	nt	-3.0%	11%	nt
N#CC(CCc1ccccn1)c1ccccc1 (centres undefined)	nt	0.4%	-12%	nt
COc1ccc(S(=O)(=O)N2CCCOC2CNC(=O)C(=O)NCc2ccccc2F)cc1C (centres undefined)	0%	-4.2%	-10%	nt
CCN(CC)S(=O)(=O)c1ccc(N/N=C(\C)c2cccnc2)nc1	-1%	-3.2%	-11%	nt
O=C(C1CCCN(S(=O)(=O)c2cnc[nH]2)C1)N1CCN(Cc2ccccc2)CC1 (centres undefined)	1%	4.5%	12%	-4
COc1ccc(/C=C(\NC(=O)c2ccco2)C(=O)N2CCOCC2)cc1	-6%	0.2%	-2%	nt
Cc1cc(Br)ccc1SCC(=O)OCC(O)=C(C#N)c1nc2ccccc2[nH]1	nt	2.0%	-27%	nt
Nc1nc2ccc(C(=O)NC3CCCCC3)cc2s1	-48%	0.0%	-8%	-5
O=C(N/N=C1/CCSC1)c1cc(Br)ccc1O	-13%	-0.9%	0%	-12
Fc1ccccc1C1c2[nH]c3ccccc3c2CCN1Cc1cccn1-c1ncccn1 (centres undefined)	-3%	-4.7%	-1%	-17
Cc1cc(NC(=O)c2ccccc2Cl)c(C(C)C)cc1O	-3%	-1.3%	-7%	-16
O=S(=O)(Nc1n[nH]c(C(F)(F)F)n1)c1ccccc1	6%	-1.1%	0%	-6
NN=C1c2ccccc2C(=O)C1C(=O)C(c1ccccc1)c1ccccc1 (centres undefined)	nt	?	0%	nt
CC(=O)NC(CC(=O)Nc1ccc(S(=O)(=O)N2CCCC2)cc1)c1ccccc1 (centres undefined)	0%	0.6%	1%	6
CCC(=O)Nc1ccc2nc(C3CC3)n(Cc3ccc(C(C)(C)C)cc3)c(=O)c2c1	-86%	-2.9%	-8%	5
Cc1c(CCC(=O)NCCCN2CCCC2=O)c(=O)oc2c(C)c(O)ccc12	-1%	?	?	nt
Brc1ccc(-c2nnc(-c3cccnc3)o2)cc1	nt	8.0%	-3%	nt
Cc1onc(-c2c(F)cccc2Cl)c1C(=O)NNC(=O)C1CCN(Cc2ccccc2)CC1	1%	4.7%	1%	8
C/C(Cl)=C/Cn1c(NCCN(C)C)nc2c1c(=O)n(C)c(=O)n2C	0%	-0.9%	0%	-1
COc1ccccc1N1CCN(CC(=O)Nc2c(C)n(C)n(-c3ccccc3)c2=O)CC1	0%	2.6%	2%	4
